fixLJ activator: activators of Burkholderia fixLJ two-component system | B. multivorans fixK-promoter GFP reporter, 18 h; hits give high values | z-score (concentration not given with the values) | actives 0.3% (n = 29,000) | AID 1918990;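 active = replicate mean overnight rise in green fluorescent reporter signal, 3 or more SD over negative controls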;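 also: score is relative to vehicle wells of the plate; 300 nL library stock went into each well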
Numbers without * were called inactive; & = joins results of further samples.

structure	fixLJ activator
CC1CCCCN1Cc1c(O)ccc2c(=O)c(-c3ccccc3Cl)c(C(F)(F)F)oc12 (stereo not drawn)	-2.59
COc1cc(C(=O)N2CCCC3(CCc4cn[nH]c43)C2)ccn1 (stereo not drawn)	-1.19
CC(C)Sc1ncc(Cl)c(C(=O)Nc2c(C(=O)Nc3ccccc3)oc3ccccc23)n1	-1.37
CCOC(=O)c1sc(N2C(=O)c3oc4ccccc4c(=O)c3C2c2ccc(C(C)(C)C)cc2)nc1C (stereo not drawn)	-1.45
CC(C1CCN(c2cccc(C(=O)O)n2)CC1)N1CCOCC1 (stereo not drawn)	-0.86
Cc1ccc(CNC(=O)c2ccc3c(c2)N(Cc2cccc(C)c2)C(=O)CS3)cc1	-0.4
CCc1nn(C)c(Cl)c1CN1CCN(c2cc(OC)ncn2)CC1	-0.83
Cc1cccc(N2CCN(S(=O)(=O)c3cc(Br)cc4c3N(C(=O)C3CC3)CC4)CC2C)c1 (stereo not drawn)	-1.21
CCOc1ccc(NC(=O)Cn2cc(C(=O)c3ccc(CC)cc3)c(=O)c3cc(OC)c(OC)cc32)cc1	-0.94
COc1cc(C(=O)N(Cc2ccc(N(C)C)cc2)CC2CCCO2)cc(OC)c1OC (stereo not drawn)	-1.15
O=S(=O)(c1ccccc1)c1nc(-c2ccccc2F)oc1N1CCOCC1	0.02
O=C(NCc1ccccc1Cl)C1CCCN(C(=O)c2cnn(-c3ccccc3)c2-n2cccc2)C1 (stereo not drawn)	-3.13
CCCOc1ccc(CNC(=O)C2CCCN(c3nc4c(C)cc(C)cc4s3)C2)cc1 (stereo not drawn)	-1.47
Cc1ccc(S(=O)(=O)NCc2nc(-c3cccc(C)c3)no2)cc1	1.96
COc1ccccc1NC(=O)C1=C(C)Nc2nc(SCc3ccccc3C)nn2C1CC(C)C (stereo not drawn)	-1.75
CC(NC(=O)c1ccccc1)c1nc2ccccc2n1Cc1ccc(Cl)cc1 (stereo not drawn)	-1.98
Cc1cc(C)cc(NC(=O)Cn2nnc(C(=O)NCc3ccco3)c2N)c1	-1.38
Nc1nn(-c2ccccc2)nc1C(=O)OCc1c(F)cccc1Cl	1.74
CCOc1cc(C#N)c(NC(=O)c2ccc(OC)c(S(=O)(=O)N3CCCC3)c2)cc1OCC	-2.48
O=C(C1CCCCn2nnnc21)N1CC(Oc2ccccc2)C1 (stereo not drawn)	0.73
CCOc1ccccc1NC(=O)N1c2ccccc2Sc2ccccc21	-0.85
Cc1ccc(-n2cccn2)c(CN2CCC(c3cc(=O)[nH]c(C)n3)CC2)c1	0.56
CCN1CCSc2ccc(C(=O)NCc3ccc(F)cc3)cc21	0.69
COC(=O)CSc1nc2sc3c(c2c(=O)n1-c1ccccc1)C(C)CCC3 (stereo not drawn)	0.9
CCCCCOC(=O)c1ccc(Nc2nc(C(=O)OCC)nc3ccccc23)cc1	-2.72
CCC(C(=O)Nc1ccc(C(C)=O)cc1)n1c(C)c2cnn(-c3ccccc3)c(=O)c2c1C (stereo not drawn)	-3.19
Cc1ccc(NC(=O)Cn2ncn3c(cc4ccccc43)c2=O)c(C)c1	-1.22
CCOC(=O)c1cc2c(=O)n3ccccc3nc2n(CCCOC)c1=NC(=O)C(C)(C)Oc1ccc(Cl)cc1	-0.51
CCOC(=O)c1ccc(NC(=O)CSc2nc3c(cc2C#N)N2CCC3CC2)cc1	-0.78
CC(=O)OC/C=C(C)/C=C/C=C(C)/C=C/C1=C(C)CCCC1(C)C	-1.28
CSCC[C@@H](C(=O)Nc1cccc(F)c1)N1Cc2ccccc2C1=O	-0.86
Clc1ccccc1-c1nnc(-c2ccccc2CNc2ccccc2)o1	-0.21
Cc1ccc(-n2nc(CO)c(C(=O)NCc3cccnc3)n2)cc1	-0.93
Cn1c(=O)c2[nH]cnc2n(C)c1=O	-0.13&-1.08
Cc1cc(C)cc(Oc2coc3c(CN4CCN(C)CC4)c(O)ccc3c2=O)c1	-3.16
COc1cc(Cl)c(C)cc1NC(=O)c1ccc2c(SCC(=O)O)c3c(nc2c1)CCCC3	-1.11
Cc1ccc(OCC(=O)N(Cc2ccco2)Cc2ccco2)cc1	-0.7
CCN(CC)C(=O)Cn1c(=O)n(-c2ccccc2)c(=O)c2c3c(sc21)CCC3	-1.63
COc1ccc(-c2cc(C(F)(F)F)nc(NCCc3ccccc3)n2)cc1	-0.54
CCOc1ccccc1NC(=O)Cn1c(=O)n(CC(=O)NCc2ccccc2Cl)c(=O)c2sccc21	-2.37
CCOc1ccc(NC(=O)c2sc3nc4c(c(-c5ccc(OC)cc5)c3c2N)C(=O)CC(C)(C)C4)cc1	-2.71
CCCCN(CCCC)C1=C(C(=O)c2ccccc2)N(C)S(=O)(=O)c2ccccc21	-0.22
COc1ccccc1N1CCN(C(=O)c2cc3c(-c4ccccc4F)nn(C)c3s2)CC1	1.96
CC(=O)Nc1ccc2nc(CN3CCN(c4nnc(C(F)(F)F)s4)CC3)ccc2c1	-0.96
Cc1cccc(OCC(O)Cn2c(=N)n(CCN3CCCCC3)c3ccccc32)c1 (stereo not drawn)	0.62

Arranged by SMILES length (lowest first): 3 of the compounds above.
structure	fixLJ activator
Cc1ccc(OCC(=O)N(Cc2ccco2)Cc2ccco2)cc1	-0.7
Cc1cccc(OCC(O)Cn2c(=N)n(CCN3CCCCC3)c3ccccc32)c1 (stereo not drawn)	0.62
CCN(CC)C(=O)Cn1c(=O)n(-c2ccccc2)c(=O)c2c3c(sc21)CCC3	-1.63

Further compounds
structure	fixLJ activator
O=C1OC(C(=O)Nc2ccc(Cl)c(C(F)(F)F)c2)Cc2ccccc21 (stereo not drawn)	-1.56
Oc1ccc(-c2nc3ccc(Cl)cn3c2Nc2ccc3c(c2)OCO3)cc1	-0.72
O=C(NCC1(O)CCCNC1)c1ccc(-c2c(O)ccc3ccccc23)cc1 (stereo not drawn)	-2.74
COc1ccc(OC)c(S(=O)(=O)N2Cc3ccccc3CC2C(=O)Nc2ccc(Cl)cc2)c1 (stereo not drawn)	0
Cc1cccc(Oc2coc3cc(OCC(=O)NC4CCCCC4)ccc3c2=O)c1	-4.5
COc1cccc(CNC(=O)Cc2c(C)c3cc4c(C)coc4cc3oc2=O)c1	-1.97
Cc1nc(CCc2nc3ccc(F)cc3[nH]2)n(C(C)(C)C)n1	-1.57
CCOc1ccc(-c2ccnc(NCC3(C)CCCO3)n2)cc1C(=O)O (stereo not drawn)	-0.46
Cn1cc(CCCNC2CCN(C(=O)c3cccnc3)CC2)cn1	-3.28
O=c1n(Cc2ccc(F)cc2)nc(C2CCNCC2)n1Cc1ccccc1	-0.33
CCNC(=O)c1ccc(CSc2nc3ccncc3n2Cc2ccc(F)cc2)cc1	0.01
CCOc1ccc(/C=C/c2nc(C#N)c(NCc3ccc(OC)cc3)o2)cc1	-1.83
CCOc1ccc(S(=O)(=O)N(CC(=O)NCCSCc2ccccc2)c2ccccc2)cc1	0.44
CC(NC(=O)c1cc(-c2ccc(Cl)cc2)on1)c1ccccc1 (stereo not drawn)	-1.46
COc1ccc(Br)cc1CNCc1c(C(=O)O)c(C)n(Cc2ccccc2C)c1C	-3

Copied from the list:
`CCCCN(CCCC)C1=C(C(=O)c2ccccc2)N(C)S(=O)(=O)c2ccccc21` in fixLJ activator reads -0.22
`Nc1nn(-c2ccccc2)nc1C(=O)OCc1c(F)cccc1Cl` in fixLJ activator reads 1.74
`CCN1CCSc2ccc(C(=O)NCc3ccc(F)cc3)cc21` in fixLJ activator reads 0.69
`CC(C1CCN(c2cccc(C(=O)O)n2)CC1)N1CCOCC1` (stereo not drawn) in fixLJ activator reads -0.86
`COc1cccc(CNC(=O)Cc2c(C)c3cc4c(C)coc4cc3oc2=O)c1` in fixLJ activator reads -1.97
`COc1cc(C(=O)N(Cc2ccc(N(C)C)cc2)CC2CCCO2)cc(OC)c1OC` (stereo not drawn) in fixLJ activator reads -1.15

(cont.)
structure	fixLJ activator
Cc1cc(C(=O)N2CCCC(c3ccnn3CC(=O)O)C2)cs1 (stereo not drawn)	-0.86
Cc1ccc(C)c(N2CCN(C(=O)C3CCN(Cc4nc(-c5cccc(Cl)c5)oc4C)CC3)CC2)c1	-1.82
CNC(=O)c1ccc(OC)c(NC(=O)N2CCCC(c3ccncn3)C2)c1 (stereo not drawn)	-0.73
CCC(C)(C)C(=O)N1CCC(Cc2ccc(C(=O)O)cc2)C1 (stereo not drawn)	-1.03
Cc1ccc(C(=O)NC(C)C)cc1NC(=O)N1CC=CC1C(C)C (stereo not drawn)	-0.5
Cc1ccc(Nc2c(-c3ccc(N4CCOCC4)cc3)nc3ccc(Cl)cn23)cc1	0.06
CCC(C)(C)c1ccc(CC(C)CN2C[C@@H](C)O[C@@H](C)C2)cc1 (stereo partly drawn)	-0.97
CCCc1cc(=O)[nH]c(Nc2ccc(C(=O)O)cc2)n1	-1.42
Cc1ccc(C2CC(=O)n3nc(-c4ccc(Cl)cc4)nc3S2)cc1 (stereo not drawn)	0.48
COCc1cc(N(C)Cc2nc3ccccc3s2)n2nccc2n1	0.71
Cc1c(C(=O)N2CCC(c3nc(C(C)C)no3)CC2)sc2nc[nH]c(=O)c12	-4.41
Cc1noc(C)c1CN1C(=O)C2CCC1CN(Cc1ccc(C(=O)O)cc1)C2 (stereo not drawn)	-1.1
CCOc1ccccc1NC(=O)CSc1nc2cc(OC)c(OC)cc2c2nc(-c3ccccc3)nn12	-0.46
Cc1cnccc1NCCNC(=O)CCCc1cccs1	-2.2
CCc1nn(CCCC(=O)NCc2cc(Br)ccc2OC)c(=O)c2cc3occc3n12	0.51
COc1ccc(OCC(=O)Nc2cc(-c3nc4ccccc4o3)ccc2Cl)cc1	-1.69
CC(C)(C)C1CCc2c(sc3nnn(CCOc4ccccc4)c(=O)c23)C1 (stereo not drawn)	-0.07
Nc1c(C(=O)Nc2ccc(C(F)(F)F)cc2)sc2nc(-c3cccs3)ccc12	-1.75
Cc1cccc(Cn2c(=O)n3nc(-c4ccccc4)nc3c3ccccc32)c1	-1.62
Cc1ccn2cc(-c3ccc(NC(=O)c4nn(C)cc4Cl)cc3)nc2c1	-1.53
Cc1ccccc1-c1nnc(SCC(=O)N2CCCCC2)o1	0.05
Cc1ccc(OCCCC(=O)Nc2sc3c(c2C(N)=O)CCCC3)cc1	0.16
CCN(CC)CCCNC(=O)c1ccc2nc(N3CCCCC3)sc2c1	0.01
CCC(CC)c1nn2c(=O)cc(COc3ccc(NC(=O)c4ccc(C)cc4)cc3)nc2s1	-0.82
O=C(Cn1c(=O)n(-c2ccccc2)c(=O)c2c3c(sc21)CCCC3)Nc1ccccc1	0.28
Cc1ccc(NC(=O)Cn2c(=O)n(-c3ccc(C)cc3)c(=O)c3c2cnn3C)cc1	-0.13
CC1CCCCN1CCCNC(=O)Cn1ncc2c3ccccc3n(Cc3ccccc3F)c2c1=O (stereo not drawn)	-0.46
O=C(CCS(=O)(=O)c1nc(-c2cccs2)cc(C(F)(F)F)n1)Nc1ccc(Br)cc1	0.49
O=C(CCn1cc(Cl)cn1)N1CCCC(O)(CO)CC1 (stereo not drawn)	0.12
CC(C)OCCCN1C(=O)c2[nH]nc(-c3ccccc3O)c2C1c1ccccc1F (stereo not drawn)	0.32
NC(=O)C1(N2CCCCC2)CCN(C(=O)Nc2ccc(Cl)c(Cl)c2)CC1	0.27
COc1ccc(NC(=O)Cn2cnc3sc(C)c(S(=O)(=O)N4CCN(C)CC4)c3c2=O)cc1OC	1.58
Cc1ccc(CNC(=O)CCCCn2c(=O)c3ccccc3n(Cc3ccc(Cl)cc3)c2=O)cc1	2.83
COc1cccc(-c2ccc3c(N)c(C(=O)Nc4ccc(C)c(F)c4)sc3n2)c1	-1.38
CC(C)CN(Cc1ccccn1)C(=O)NCCc1noc(C2CC2)n1	0.19
O=C(c1ccc[nH]1)N1CCC2(CCCN(C3CCCCC3)C2=O)C1 (stereo not drawn)	-1.27
CC1CCN(S(=O)(=O)c2ccc3c(c2)CCN3C(=O)Nc2ccc(Br)cc2)CC1	-0.2
CN(CCNc1cc(C2CCOC2)ncn1)CC1=CCCCC1 (stereo not drawn)	1.57
O=C(CCCn1c(=O)[nH]c2ccc(Br)cc2c1=O)N1CCN(c2cccc(Cl)c2)CC1	-0.16
CCC(=O)N1CCc2cc(S(=O)(=O)N(C)c3cccc(C)c3)ccc21	1.23
COc1ccccc1N1CCN(C(=O)CN2CCCC(O)C2)CC1=O (stereo not drawn)	-1.52
Cc1ccc(NC(=O)Cn2cc(C(=O)c3cccs3)c3ccccc32)cc1C	-0.96
CCc1ccc(C2CC(=O)c3c([nH]c(C(=O)OCc4ccc(C)cc4)c3C)C2)cc1 (stereo not drawn)	-0.78
CCOC(=O)c1c(NC(=O)/C=C/c2ccc(C)cc2)sc2c1CCCC2	-0.79
CCOc1ccc2nc(N3CCCC(C(=O)NCCc4ccc(SC)cc4)C3)sc2c1 (stereo not drawn)	-0.63
COc1cccc(CN2CCCC3(CCN(C(=O)Cn4ccnc4)C3)C2=O)c1OC (stereo not drawn)	-0.28
COc1ccccc1C(=O)Nc1c(C(=O)N(C)c2ccccc2)sc2nc(C)cc(C)c12	-0.97
CCC(=O)N1CCc2cc(OC)c(OC)cc2C1COc1ccc2c(C)cc(=O)oc2c1 (stereo not drawn)	0.42
COc1cccc2c1OCC(CNC(=O)c1c[nH]c(C)cc1=O)C2 (stereo not drawn)	0.92
CCOC(=O)c1ccc(NC(=O)c2cn(-c3ccccc3)nc2-c2ccc(C)cc2)cc1	-1.14
Cc1ccc(-c2nc(CS(=O)CC(=O)NCc3ccccc3Cl)c(C)o2)cc1 (stereo not drawn)	-1.43
Cc1ccc(CNC(=O)C2CCN(S(=O)(=O)c3cccc4nonc34)CC2)cc1	-0.85
CCc1nc(SCC(=O)Nc2ccc(NC(C)=O)cc2)n[nH]1	-2.47
COc1ccc(-c2coc3c2c(C)cc2oc(=O)c(CC(=O)O)c(C)c23)cc1	-2.65

Among those listed so far, these contain a cyano group:
structure	fixLJ activator
CCOc1cc(C#N)c(NC(=O)c2ccc(OC)c(S(=O)(=O)N3CCCC3)c2)cc1OCC	-2.48
CCOC(=O)c1ccc(NC(=O)CSc2nc3c(cc2C#N)N2CCC3CC2)cc1	-0.78
CCOc1ccc(/C=C/c2nc(C#N)c(NCc3ccc(OC)cc3)o2)cc1	-1.83

The list is partial; the hit share may differ from the screen's.
